A1 inh: inhibitors of the anti-apoptotic protein A1, read as caspase activation | MEF A1-2A-BIM cells, Caspase-Glo 3/7 luminescence, 3 h; percent of clofoctol response, vehicle zero | caspase activation, % (no concentration beside the values) | 330,000 compounds, 0.066% hits;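 active = over half of replicate activation scores above 10%, or exactly half above 10 with the replicate mean above 10; inconclusive = replicate mean below 10 yet half the replicates above 10; inactive = over half of replicates below 10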;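 note: wells of about 30 µL received 50 nL stock; many hits fall short of the cut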
Vif A3G: inhibitors of Vif binding to APOBEC3G peptide, primary screen, biochemical, TR-FRET, GST-Vif 1-94, biotin-A3G peptide, dose response retest (AID 1117319); 260,000 compounds, 0.57% hits; TR-FRET GST-Vif / biotin-A3G peptide binding; higher % means a stronger effect; test concentration not given here; strong numbers were not always called active; inhibition, %; hits with a dose series show IC50 in µM;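 active = above the screen mean plus three standard deviations and confirmed in dose response; inconclusive = results disagree or hit not tested in dose response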;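 note: Vif residues 1-94 fused to GST binding biotinylated APOBEC3G peptide 110-148; 0% = full assay without inhibitor and 100% = GST in place of GST-Vif; retest series ran down from 100 µM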
HNF4A DNA FP: change in binding of human HNF4 alpha to DNA; AID 1224865; HNF4a-FITC DNA binding, fluorescence polarization, 1 h; 360,000 compounds, 0.3% hits; activity change, % at 10 µM; in the data active = activity change above about 30%, passing the limit was not always enough;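 note: controls were the assay level and a saturating level of protein; the project sought stronger binding though the title names inhibitors; some compounds called inactive have numbers as strong as hits; positive values seem to mean higher polarization but the record does not say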
Target sequence (P41235 whole entry, looked up): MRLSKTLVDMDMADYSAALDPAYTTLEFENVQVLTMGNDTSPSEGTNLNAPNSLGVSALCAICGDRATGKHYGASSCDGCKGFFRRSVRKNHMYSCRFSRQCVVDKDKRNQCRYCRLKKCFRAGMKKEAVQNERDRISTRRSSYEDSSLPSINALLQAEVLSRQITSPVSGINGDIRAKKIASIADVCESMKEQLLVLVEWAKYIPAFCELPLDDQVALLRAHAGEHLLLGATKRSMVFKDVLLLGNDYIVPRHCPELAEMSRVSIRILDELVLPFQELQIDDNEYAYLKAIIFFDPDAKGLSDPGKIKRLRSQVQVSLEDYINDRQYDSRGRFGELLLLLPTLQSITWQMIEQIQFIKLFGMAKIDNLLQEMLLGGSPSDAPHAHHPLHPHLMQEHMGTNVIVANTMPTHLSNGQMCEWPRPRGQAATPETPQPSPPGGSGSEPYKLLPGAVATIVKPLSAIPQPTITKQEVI
LANA-H2B inh: blocks KSHV LANA binding to histone H2A/H2B. cell-free LANA-H2A/H2B peptide, fluorescence polarization. 320,000 compounds, 0.6% hits. Q9QR71. inhibition, % (no concentration beside the values); in the data active = inhibition mostly above about 10%, no sharp cut-off; inactive = mostly below about 6.7%;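 note: stock transfer was 7.5 nL into about 10 µL; 0% = median of vehicle wells and 100% = median of positive control wells; one replicate is shown; the record names a cut of 25% in any replicate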
UCH37 DUB inh: inhibitors of human deubiquitinating enzyme UCH37. purified proteasome/UCH37, Ub-AMC cleavage fluorescence. 330,000 compounds, 0.33% hits. Q9Y5K5. AID 588478. inhibition, % (no concentration beside the values);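 active = mean of two replicates above 20%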;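 note: 0% = compound-free wells with enzyme and 100% = wells lacking proteasome; stock transfer was 100 nL into about 20 µL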
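Schedule: 30 min plus 25 min, room temperature / Material: human UCH37 within purified proteasomes / Technique: AMC fluorescence intensity at 355/460 nm / Buffer or medium: pH 7.4 Tris-HCl (50 mM) with ovalbumin, ATP-MgCl2, DTT / Controls: wells without proteasome as full block, compound-free enzyme plus substrate as uninhibited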
Ecoli growth: inhibitors of Escherichia coli growth; 330,000 compounds, 0.21% hits; AID 1053175; OD600, 23 h; active compounds read low; OD600 absorbance (no concentration beside the values);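 active = OD600 absorbance below the run mean of sample wells minus 3.6 SD, in any replicate, cut at about 0.56 in these data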;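 note: stock transfer was 300 nL into about 60 µL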
Beta2AR agonist: activates human beta-2 adrenergic receptor causing internalization | P07550 | Am2.2-beta2AR cells, FAP receptor internalization, flow cytometry; reference of the scale not given here | response, % (concentration not given with the values) | 340,000 compounds, 0.43% hits;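 active = response above a set limit, near 3 SD of response in nonfluorescent compounds, cut at about 42% in these data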;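 note: stock transfer was 100 nL into about 11 µL; a reference agonist was the positive control; negative values mostly stem from fluorescent compounds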
Target sequence (P07550 whole entry, looked up): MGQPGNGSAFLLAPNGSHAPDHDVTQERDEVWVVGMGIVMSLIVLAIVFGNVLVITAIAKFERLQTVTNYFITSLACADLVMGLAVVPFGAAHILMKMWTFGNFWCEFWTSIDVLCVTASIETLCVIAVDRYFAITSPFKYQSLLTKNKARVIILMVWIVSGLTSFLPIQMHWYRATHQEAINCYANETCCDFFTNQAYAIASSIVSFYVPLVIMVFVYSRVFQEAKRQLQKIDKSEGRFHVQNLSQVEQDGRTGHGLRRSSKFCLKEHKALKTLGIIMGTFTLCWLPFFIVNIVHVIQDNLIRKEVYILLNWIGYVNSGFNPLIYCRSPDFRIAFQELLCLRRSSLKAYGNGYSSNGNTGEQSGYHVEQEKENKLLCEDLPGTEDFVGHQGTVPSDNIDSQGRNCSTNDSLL
* marks the source's active call; other numbers are inactive results; ? = inconclusive; · = not tested or not shown; & = joins results of further samples. These rows are one share of the data; the hit share may differ from the screen's.

SMILES	A1 inh	Vif A3G	HNF4A DNA FP	LANA-H2B inh	UCH37 DUB inh	Ecoli growth	Beta2AR agonist
COc1ccc(N2C(=O)NC(=O)/C(=C/c3ccc([N+](=O)[O-])s3)C2=O)cc1	-0.3	?	-6.9	3.4	13	0.53	-28
Cc1ccc(C)c(OCC(=O)N2CCN(Cc3ccc4c(c3)OCO4)CC2)c1	0.4	5%	0.4	-1.8	0.2	0.73	-9
CC[n+]1c(SC)ccc2cc(OC)ccc21	-0.6	1%	-1.6	-1.0	-63	0.7	0
O=c1c2ccccc2[nH]c(=S)n1-c1ccc2c(c1)OCCO2	-0.3	-4%	6.7	-13	2.3	0.67	-9
CCOC(=O)c1[nH]ncc1CN1CCCC(C(=O)c2cccc(Cl)c2)C1 (centres undefined)	-0.2	6%	-3.7	6.5	4.1	0.69	6
CC1(C)Cc2c(sc3c2C(=O)NC(c2cccnc2)N3)CO1 (centres undefined)	0.1	1%	6.5	-3.0	-26	0.68	-5
CCc1ccc(OCC(=O)N2CCN(CC(=O)Nc3ccccc3Cl)CC2)cc1	·	-16%	2.0	·	1.3	0.68	2
CCOC(=O)c1c(C)[nH]c(C(=O)C(C)N2CCCC2)c1C (centres undefined)	-0.2	13%	1.2	-1.2	3.4	0.7	-3
CCOC(=O)c1sc(/N=C/c2c(O)n(-c3ccccc3)c(=O)[nH]c2=O)c(C#N)c1C	0.1	17%	12	-4.5	2.6	0.71	2
COc1cc2[nH]c(=O)n(-c3ccccc3)c(=O)c2cc1OC	-1.0	3%	1.3	-1.1	-24	0.72	-4
Cc1cccc(NC(N)=S)c1	0.9	-4%	2.0	0.3	1.8	0.71	2
Cc1cccc(C)c1NC(=O)c1cccn(Cc2ccc3c(c2)OC(F)(F)O3)c1=O	-0.9	-13%	1.9	-4.3	2.8	0.68	0
COCCCn1c(N)c(C(=O)Nc2ccccc2)c2nc3ccccc3nc21	0.4	-11%	-1.8	-3.5	-18	0.7	10
O=C(Nc1ccccc1)OC1CN=C(N[N+](=O)[O-])NC1 (centres undefined)	0.6	·	-2.2	0.4	3.7	0.71	-1
Cc1nonc1-c1nc(-c2nonc2N)n[nH]1	0.5	-10%	-5.4	3.1	4.9	0.66	1
CC1=NN(Cc2c[nH]c3ccccc23)C(C)(C)C1	0.6	·	-1.6	-2.5	2.4	0.66	5
COc1ccc(OC)c(N2C(=O)NC(=O)/C(=C/c3ccc([N+](=O)[O-])s3)C2=O)c1	0.1	?	-11	5.7	8.5	0.55	-6
CCOC(=O)C1=C(N)OC2=C(C(=O)CCC2)C12C(=O)Nc1ccccc12 (centres undefined)	0.6	-1%	5.1	1.1	1.2	0.64	-6
CCOc1cc(/C=C2/C(=O)NC(=O)N(c3ccc(CC)cc3)C2=O)ccc1OC(=O)c1cccs1	-1.0	16%	0.2	2.7	·	·	-4
O=C(O)Cn1cc(C(=O)c2ccccc2)c2ccccc21	-0.7	4%	-1.2	-0.3	7.5	0.68	7

One compound at a time (already shown).
Cc1cccc(NC(N)=S)c1 is listed with A1 inh: 0.9; Vif A3G: -4%; HNF4A DNA FP: 2.0; LANA-H2B inh: 0.3; UCH37 DUB inh: 1.8; Ecoli growth: 0.71; Beta2AR agonist: 2
COc1ccc(OC)c(N2C(=O)NC(=O)/C(=C/c3ccc([N+](=O)[O-])s3)C2=O)c1 is listed with A1 inh: 0.1; Vif A3G: ?; HNF4A DNA FP: -11; LANA-H2B inh: 5.7; UCH37 DUB inh: 8.5; Ecoli growth: 0.55; Beta2AR agonist: -6

Next part:
SMILES	A1 inh	Vif A3G	HNF4A DNA FP	LANA-H2B inh	UCH37 DUB inh	Ecoli growth	Beta2AR agonist
O=c1c2ccccc2[nH]c(=S)n1-c1cccnc1	0.8	7%	·	0.9	1.9	0.7	·
O=C1OCc2cc(N=Nc3c(O)[nH]c(=O)[nH]c3=O)ccc21	-0.6	-10%	-4.1	3.0	10	0.65	8
Cc1c(C(=O)c2ccccc2)c2ccccc2n1C	1.6	-5%	1.3	-2.8	7.4	0.67	-7
CC12CN3C(O)C(C)(C1)CC(C)(C2)C3O (centres undefined)	-0.9	-3%	-1.4	7.2	1.7	0.64	6
O=c1c(/C=N/N2CCOCC2)c(O)n(-c2ccccc2)c(=S)n1-c1ccccc1	0.9	·	6.8	-1.6	2.1	·	10
COc1ccccc1N1CCN(Cc2ccc(SC)cc2)CC1	-0.5	-7%	0.1	4.7	5.0	0.64	4
COc1ccc(N=C(C)c2c(O)n(C)c(=O)n(C)c2=O)c(OC)c1	0.5	-3%	-0.1	-3.0	4.4	0.67	-16
Cc1cc(/C=C2\C(=O)NC(=O)N(c3ccccc3F)C2=O)c(C)n1-c1cc(C(=O)O)cc(C(=O)O)c1	0.1	·	-42	1.5	·	·	0
Cc1ccc(C)c(NP(=O)(Oc2ccccc2)Oc2ccccc2)c1	-0.3	-1%	2.0	-3.4	4.6	0.66	19
CN1CCN(CCOC2c3ccccc3CSc3ccc(Cl)cc32)CC1 (centres undefined)	0.8	-5%	-0.9	7.7	-1.2	0.62	0
CCN(CC)c1ccc(N=Cc2c(O)n(-c3ccccc3)c(=O)[nH]c2=O)cc1	0.6	5%	0.5	1.0	3.9	0.68	6
CN(C)C(=O)OCc1n(C)cc[n+]1C	0.7	0%	-1.8	5.7	1.6	0.7	-1
CCOP(=O)(C#CC(C)(C)C)C1(O)CCCCC1 (centres undefined)	0.5	-1%	-3.7	-7.2	6.4	0.77	-3
C[C@]12CCC3C(CC[C@H]4C[C@H](O)CC[C@]34C)C1C[C@@H](O)[C@@H]2O (some centres undefined)	0.8	-1%	1.9	6.7	1.0	0.7	1
CCC(C)N1CCN(C(=O)COc2ccc3ccccc3c2)CC1 (centres undefined)	-0.4	0%	10	-4.2	-0.4	0.65	0
O=C(Cc1ccccc1)N1CCN(C2CCCCCC2)CC1	-0.1	25%	4.4	-1.8	5.9	0.72	0
CC1=CC(=Cc2sc3ccccc3[n+]2C)C=C(C)O1	·	-5%	13	·	20*	0.68	-938
CN1CSC(=S)N(C)C1	-0.3	-3%	-2.2	0.9	0.4	0.73	7
CCN1CCN(Cc2ccc(C)cc2C)CC1	-0.2	11%	23	1.4	6.0	0.71	-2
CCCCn1c(=O)c(C(=O)NCc2ccc(Cl)cc2)c(O)c2ccccc21	1.3	·	-5.2	-3.9	-0.8	0.73	-2
CCCCCCCCC(=O)NCc1ccc(O)c(OC)c1	0.5	·	3.5	-11	0.5	0.69	-2
COc1ccccc1N1C(=O)NC(=O)C(CCc2ccncc2)(CCc2ccncc2)C1=O	0.2	10%	0.4	-1.1	1.5	0.71	-2
O=C(/C=C/c1ccccc1)NC(=S)N1C[C@H]2C[C@H](C1)c1cccc(=O)n1C2	1.7	·	-1.4	-3.3	0.1	0.71	5
Cc1cc(NC(=O)COC(=O)c2c(C)nn(Cc3ccccc3)c2C)no1	0.1	?	0.7	3.0	5.3	0.68	-9
Brc1ccc2[nH]cc(/C=N/N3CCCCC3)c2c1	0.3	4%	-2.7	-2.1	·	·	16
COc1ccc(N=C(C)c2c(O)n(C3CCCCC3)c(=O)[nH]c2=O)c(OC)c1	-0.3	21%	7.1	-1.0	-4.7	0.71	-4
CCc1nc(N2CCNCC2)c(C#N)c2c1CSC(C)(C)C2	1.3	0%	2.7	-2.2	-12	0.71	-6
Cc1ccccc1-n1c(O)c(/C=N/N2CCOCC2)c(=O)[nH]c1=S	0.0	·	6.8	-0.4	12	0.68	2
CN(C)C(=O)Oc1cccc(-c2cn3cc(Cl)ccc3n2)c1	-0.6	-11%	1.1	-1.6	-15	0.67	-11
COc1ccc(S(=O)(=O)NC(CC(=O)N2CCC3(CC2)OCCO3)c2ccco2)cc1 (centres undefined)	0.0	5%&-3%	-2.6	-6.1	-0.4	0.72	-5
CCOC(=O)c1cnc(N2CC2)nc1N	·	0%	2.5	·	4.5	0.67	-6
CC(=NCCN1CCOCC1)c1c(O)n(Cc2ccccc2)c(=O)[nH]c1=O	-0.3	-1%	5.4	11	0.5	0.63	-1
CCN1c2nc3ccccn3c(=O)c2CC2(C(=O)N(C)C(=O)N(C)C2=O)C1C (centres undefined)	1.6	-2%	16	1.1	-11	0.7	-1
C[C@]12CCC3C(CC[C@H]4C[C@H](O)CC[C@]34C)C1[C@@H](O)[C@@H](O)[C@@H]2O (some centres undefined)	1.0	-9%	-1.4	1.6	1.8	0.67	0
COCCNCCOc1ccc(C(C)(C)c2ccccc2)cc1	0.6	9%	-1.3	-7.5	4.9	0.62	3
CCCCC(=O)N/N=C/c1c(O)n(C2CC2)c(=S)[nH]c1=O	-0.4	·	-3.1	-2.9	13	0.64	3
O=c1c2ccccc2nc(-c2ccc(-c3ccccc3)cc2)n1-c1ccncc1	0.8	0%	1.2	-2.2	2.2	0.69	-19
O=c1[nH]c(=S)n(C2CC2)c(O)c1C=NCC1CCCO1 (centres undefined)	-0.3	23%	3.8	-3.4	6.0	0.7	3
COc1ccc(OCC#CCN2CCCCCC2)cc1	-0.2	-6%	2.7	1.5	6.3	0.67	8
CCCCn1c(O)c(C(C)=NCCc2c[nH]c3ccccc23)c(=O)[nH]c1=O	-1.1	-2%	-4.2	-3.0	5.7	0.66	4
c1cc2c(cc1C1OCC3C(c4ccc5c(c4)OCO5)OCC13)OCO2 (centres undefined)	·	·	0.9	·	1.5	0.69&0.69&0.69	-18
CCCN1CC[C@@H]2c3cc(O)ccc3CC[C@@H]21	0.1	·	-3.3	4.7	4.0	·	2
CC12CN3CC(C)(CN(C1)C3c1cccs1)C2 (centres undefined)	0.6	-4%	0.1	4.0	0.2	0.68	5
CCc1ccccc1NC(=O)CNC1CCCCC1	0.5	·	2.0	0.6	2.0	0.73	0
CN(C)c1ccc([N+](=O)[O-])c([N+](=O)[O-])c1	·	3%	3.1	·	6.9	0.67	2
O=C1NC(=O)N(c2ccccc2F)C(=O)/C1=C/c1cn(CC(=O)N2CCOCC2)c2ccccc12	-0.2	·	·	1.6	-0.1	0.71	·
Fc1ccc2c(c1)nnn2C1CCN(Cc2ccccc2)CC1	0.2	?	-5.8	-1.7	5.7	0.67	-8
Cc1c(-c2cccc(Cl)c2)nc2ccccc2c1C(=O)N1CCC2(CC1)OCCO2	0.1	·	0.3	3.8	4.5	0.73	2
Cc1ccc(S(=O)(=O)N2CCC(C(=O)N3CCC4(CC3)OCCO4)CC2)cc1	-0.2	7%	-0.9	-0.7	-0.3	0.63	-9
CC(C)CCC1(CCc2ccncc2)C(=O)NC(=O)NC1=O	0.0	26%	3.9	0.3	2.1	0.69	2

Continuation:
SMILES	A1 inh	Vif A3G	HNF4A DNA FP	LANA-H2B inh	UCH37 DUB inh	Ecoli growth	Beta2AR agonist
CN1CCN(c2c(N)c(=O)oc3ccccc23)CC1	1.5	1%	-1.3	-0.8	5.1	0.65	6
COC(=O)C1=C(c2c(C)noc2C)C[C@@H]2CC[C@H]1N2C(=O)NC(C)C	-0.5	·	2.4	1.6	-1.2	·	-3
CCN1CCN(C(=O)Cc2ccc(C)cc2)CC1	1.2	·	-0.9	1.1	-0.6	0.65	-1
COC(=O)C1=C(c2ccccc2OCc2ccccc2)C[C@@H]2CC[C@H]1N2C(=O)NCc1ccc(Br)cc1	-0.7	·	1.9	-1.5	-0.1	·	-4
CC1(C)CN=C(Nc2ccccc2C(F)(F)F)S1	0.3	3%	4.5	-0.1	0.0	0.71	5
C=CCN1CC[C@@]2(C)c3cc(O)ccc3CC1[C@@H]2C	0.0	-6%	0.9	1.3	0.5	·	-3
O=C1CN=C(c2ccccc2)c2oc3ccc(Br)cc3c2N1	-0.2	-3%	1.0	3.5	4.0	0.73	-16
Clc1ccccc1C1NCc2ccccc2-n2cccc21 (centres undefined)	-5.9	1%	2.2	3.4	3.7	0.69	8

High-throughput results (PubChem BioAssay)
